# Assay outcomes from PubChem BioAssay.
# BJeLR viability: BJeLR cell viability loss, primary screen, luminescence, CellTiterGlo ATP; 0.64% of 30,000 active; viability loss activity score, % (concentration not given with the values); BJeLR fibroblasts viability, 48 h; HRASV12, hTERT and SV40 LT/ST transformed; in the data active means viability loss activity score above about 50%; about a fifth of its hits are not listed in these tables;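 further: higher score means fewer live cells and less ATP luminescence; stock transfer was 50 or 100 nL into about 30 µL; 0% = vehicle wells and 100% = a reference killing control; one replicate is shown; the record names a cut of 85%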
# A1 inhib: inducers of caspase activity in MEF A1-2A-BIM cells, primary screen, A1 inhibitor project, cell-based, CaspaseGlo luminescence | 0.51% of 21,000 active | caspase-Glo luminescence, 3 h; percent of clofoctol signal, DMSO as zero | caspase activation, % (no concentration beside the values);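 active means most replicate scores above 10, or exactly half above 10 with mean activity above 10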;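 further: effector caspase 3 and 7 activity cleaving a DEVD luciferin substrate; 50 nL library stock added to about 30 µL; numbers are from one replicate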
# An asterisk follows results filed as active; / = not tested or not shown. A portion of the library; rates above refer to the full screens.
SMILES,BJeLR viability,A1 inhib
C[C@H]1CN([C@@H](C)CO)C(=O)c2cccc(NC(=O)c3ccncc3)c2O[C@@H]1CN(C)S(C)(=O)=O,0.8,/
COc1ccc(Cn2c(CCC(=O)NCc3ccccc3)nc3cccnc32)cc1,-8.6,/
Cn1c(=NC(=O)CCSc2ccccc2)sc2cc(Cl)ccc21,-1.5,-1.5
COc1ccc(-c2c(C)nn3c(N4CCc5ccccc54)cc(C)nc23)cc1OC,3.8,/
CCS(=O)(=O)C(=C(Nc1ccccc1)Nc1ccccc1)S(=O)(=O)CC,22,-0.1
CSC(=NS(=O)(=O)c1ccccc1)SC,-1.3,0.6
CCc1nn(CC(=O)NC2CC2)c(=O)c2cc3occc3n12,-0.4,0.7
CCOC(=O)c1c(C)n(OCc2ccccc2)c2ccc3nonc3c12,-2.8,0.3
C[C@H](CO)N1C[C@H](C)[C@@H](CN(C)S(=O)(=O)c2ccccc2)Oc2c(cccc2N(C)C)C1=O,-1.6,/
COc1ccc(N2CCN(CCCNC(=O)C3CCCN(S(=O)(=O)c4cnc[nH]4)C3)CC2)cc1 (stereo not given),-3.1,/
CC(C)(C)c1oc(C(=O)Nc2ccc3c(c2)oc2ccccc23)cc1COCC(F)(F)F,12,-0.5
C[C@@H]1CN([C@@H](C)CO)C(=O)c2cccc(NC(=O)Nc3ccc4c(c3)OCO4)c2O[C@@H]1CN(C)Cc1ccncc1,0.4,/
Cc1ccc(C#N)c(SCc2nnc(-c3ccc(Cl)cc3)o2)n1,-0.1,/
Cc1ccccc1NC(=O)NC(=O)CC#N,-7.5,0.8
COc1ccc(NC(=O)Nc2ccc3c(c2)C(=O)N([C@@H](C)CO)C[C@@H](C)[C@H](CN(C)CC2CCCCC2)O3)cc1,2.4,-0.4
CCC(=O)Nc1ccc2c(c1)N(CC)C(C)(C)CC2C (stereo not given),0.6,-1.3
COC(=O)c1scc2c(Sc3ccc(Cl)cc3)cc(C(F)(F)F)nc12,-3.3,0.5
C[C@@H]1CN([C@@H](C)CO)C(=O)c2cc(NC(=O)CCCN(C)C)ccc2O[C@@H]1CN(C)Cc1ccc2c(c1)OCO2,-1.1,-0.5
COc1ccc(-c2oc3ccc(OC)cc3c(=O)c2O)c(OC)c1,-2.6,-0.8
CCNc1nc(SCC(=O)NC(=O)NCc2ccccc2)nc2sc3c(c12)CCN(C)C3,2.8,-0.9
C=C(C)c1cccc(C(C)(C)NC(=O)N2CCC(C)CC2)c1,-3.7,/
C[C@@H]1CN([C@H](C)CO)C(=O)c2cccc(NC(=O)c3ccc(-c4nccs4)cc3)c2O[C@@H]1CN(C)S(=O)(=O)c1cccs1,4.4,/
CN(CCOc1ccc(CC2SC(=O)NC2=O)cc1)c1ccccn1 (stereo not given),-6.3,-0.4
CCc1ccc(Nc2cc(C(=O)O)c3ccccc3n2)cc1,-6.2,0.3

# Ordered by value in A1 inhib (descending): four from the list above.
Compound	A1 inhib
Cc1ccccc1NC(=O)NC(=O)CC#N	0.8
COC(=O)c1scc2c(Sc3ccc(Cl)cc3)cc(C(F)(F)F)nc12	0.5
CCc1ccc(Nc2cc(C(=O)O)c3ccccc3n2)cc1	0.3
CCC(=O)Nc1ccc2c(c1)N(CC)C(C)(C)CC2C (stereo not given)	-1.3

# Carrying on.
SMILES,BJeLR viability,A1 inhib
COc1cccc([C@H]2C(C#N)=C(N)C(C#N)(C#N)C3=CCC(C)C[C@@H]32)c1 (stereo not given in full),-3.1,3.8
C[C@H](CO)N1C[C@H](C)[C@H](CN(C)S(C)(=O)=O)Oc2ccc(NC(=O)Cn3cnnn3)cc2C1=O,-4.7,-0.3
COC(=O)c1ccc2c(=O)n(CC3CCCO3)c(SCC(=O)Nc3ccccc3Cl)nc2c1 (stereo not given),-1.5,-0.3
C[C@H]1CN([C@@H](C)CO)C(=O)c2cc(NS(=O)(=O)c3ccccc3)ccc2O[C@H]1CN(C)Cc1ccc(Cl)c(Cl)c1,1.6,-0.4
COc1ccc2[nH]c3c(=O)n(CC(=O)NC4CCCCCC4)c(=S)[nH]c3c2c1,4.5,0.0
C[C@H]1CN([C@@H](C)CO)C(=O)c2cccc(NC(=O)Nc3ccc4c(c3)OCO4)c2O[C@@H]1CN(C)Cc1ccc2c(c1)OCO2,-1.8,/
C[C@H]1CN([C@@H](C)CO)C(=O)c2cccc(NS(=O)(=O)c3ccc(Cl)cc3)c2O[C@@H]1CN(C)C(=O)Nc1ccc(F)cc1,-6.8,/
COC(=O)c1c(C)oc2ccc(OCc3ccccc3C)cc12,4.7,0.3
C[C@@H]1CN([C@@H](C)CO)C(=O)c2cc(NC(=O)Cn3cnnn3)ccc2O[C@@H]1CN(C)Cc1ccc(C(F)(F)F)cc1,-4.8,0.6
O=C(COc1ccccc1)NCc1nc2ccccc2n1Cc1ccc(Cl)cc1,1.4,1.1
COc1ccc(S(=O)(=O)N(C)C[C@@H]2Oc3ccc(NS(=O)(=O)c4cccs4)cc3C(=O)N([C@@H](C)CO)C[C@@H]2C)cc1,-6.0,0.7
Cc1sc2c(c1C)c(=O)n(-c1ccc(Cl)cc1)c(=O)n2CC(=O)N1CCCCC1C (stereo not given),1.3,/
CCCc1cnc(N2CCN(S(=O)(=O)c3cccs3)CC2)nc1,0.7,-0.3
C[C@H]1CN([C@@H](C)CO)C(=O)c2cc(NS(=O)(=O)c3cn(C)cn3)ccc2O[C@@H]1CN(C)S(=O)(=O)c1ccc(F)cc1,1.8,0.5
C[C@@H]1O[C@@H](O[C@H]2[C@@H](O)[C@@H](C)O[C@@H](O[C@H]3[C@H](O)[C@@H](O)[C@H](O[C@H]4CC[C@@]5(C)C(CC[C@]6(C)C5C=CC5=C7CC(C)(C)CC[C@]7(CO)CC[C@]56C)[C@]4(C)CO)O[C@@H]3CO)[C@@H]2O[C@@H]2O[C@H](CO)[C@@H](O)[C@H](O)[C@H]2O)[C@H](O)[C@H](O)[C@H]1O (stereo not given in full),-0.7,0.1
C[C@@H]1CN([C@H](C)CO)C(=O)c2cccc(NS(=O)(=O)c3ccccc3)c2O[C@H]1CN(C)Cc1ccncc1,-4.1,/
Cc1ccc(Nc2nc(Nc3ccc(C)cc3)nc(Sc3ncn[nH]3)n2)cc1,-9.9,0.5
C[C@@H]1CN([C@@H](C)CO)C(=O)c2cc(NC(=O)NC3CCCCC3)ccc2O[C@@H]1CN(C)Cc1ccncc1,8.3,0.2
Cc1c(C(=O)O)cc(-c2ccccc2)n1CCSc1cc(C(F)(F)F)nc2ccccc12,-1.4,0.2
C[C@@H]1CN([C@@H](C)CO)C(=O)c2cccc(NC(=O)Nc3ccc(C(F)(F)F)cc3)c2O[C@H]1CN(C)C(=O)Nc1ccc(F)cc1,2.4,/
COc1ccc(CN(C)C[C@@H]2Oc3ccc(NC(=O)Nc4ccccc4)cc3C(=O)N([C@@H](C)CO)C[C@H]2C)cc1,-0.9,-0.3
O=C(CC1(O)C(=O)N(Cc2ccccc2)c2ccccc21)c1ccc(Br)cc1 (stereo not given),-4.6,/
CC(=O)Nc1ccc(S(=O)(=O)NCCC(c2ccccc2)c2ccccc2)cc1,8.1,-0.4
O=C(CN1C(=O)/C(=C\c2ccc(F)cc2)N=C1c1ccccc1)c1ccco1,-1.6,0.1

# 3 entries from above, set out differently.
C[C@@H]1CN([C@@H](C)CO)C(=O)c2cccc(NC(=O)Nc3ccc(C(F)(F)F)cc3)c2O[C@H]1CN(C)C(=O)Nc1ccc(F)cc1
- BJeLR viability: 2.4
- A1 inhib: /
COc1ccc(CN(C)C[C@@H]2Oc3ccc(NC(=O)Nc4ccccc4)cc3C(=O)N([C@@H](C)CO)C[C@H]2C)cc1
- BJeLR viability: -0.9
- A1 inhib: -0.3
O=C(CC1(O)C(=O)N(Cc2ccccc2)c2ccccc21)c1ccc(Br)cc1 (stereo not given)
- BJeLR viability: -4.6
- A1 inhib: /

# (further entries)
SMILES,BJeLR viability,A1 inhib
O=C1/C(=C/c2ccccc2)CCC1C1CCCC1 (stereo not given),-10,/
NC(=O)C1CCN(C(=O)CN2C(=O)/C(=C/c3ccccc3F)Sc3ccccc32)CC1,-6.9,0.0
CC1CC(C)(C)Nc2ccc(OC(=O)c3ccco3)cc21 (stereo not given),18,0.2
C[C@H](CO)N1C[C@H](C)[C@H](CN(C)Cc2ccc(-c3ccccc3)cc2)Oc2ccc(NC(=O)Nc3cccc4ccccc34)cc2C1=O,-2.5,0.1
Cc1cc(C(=O)Nc2cccc3c2O[C@@H](CN(C)Cc2ccc4c(c2)OCO4)[C@H](C)CN([C@@H](C)CO)C3=O)n(C)n1,0.6,/
C[C@@H]1CN([C@H](C)CO)C(=O)c2cccc(NS(=O)(=O)c3cn(C)cn3)c2O[C@@H]1CN(C)Cc1ccccc1,1.1,/
Cc1ccc(C(=O)Nc2ccc3c(c2)OCCO3)cc1,5.9,-6.2
C[C@@H]1CN([C@@H](C)CO)C(=O)c2cccc(NC(=O)C3CCCCC3)c2O[C@@H]1CN(C)C(=O)Nc1ccc2c(c1)OCO2,-3.7,/
COc1ccc(NC(=O)Nc2ccc3c(c2)C(=O)N([C@H](C)CO)C[C@@H](C)[C@@H](CN(C)C(=O)Nc2c(C)noc2C)O3)cc1,6.9,0.2
Cc1ccc(S(=O)(=O)Nc2cccc3c2O[C@H](CN(C)Cc2ccc(Oc4ccccc4)cc2)[C@@H](C)CN([C@H](C)CO)C3=O)cc1,-6.0,/
Cc1nnsc1C(=O)Nc1cccnc1,0.8,0.2
CCOc1ccc(C2C3=C(CCCC3=O)NC3=C2C(=O)CCC3)cc1,2.8,1.0

# Quoted from the entries so far (2 entries):
SMILES,BJeLR viability,A1 inhib
C[C@@H]1CN([C@@H](C)CO)C(=O)c2cccc(NC(=O)C3CCCCC3)c2O[C@@H]1CN(C)C(=O)Nc1ccc2c(c1)OCO2,-3.7,/
COc1ccc(NC(=O)Nc2ccc3c(c2)C(=O)N([C@H](C)CO)C[C@@H](C)[C@@H](CN(C)C(=O)Nc2c(C)noc2C)O3)cc1,6.9,0.2

# Ordered by formula weight (ascending): part of the list above
SMILES,BJeLR viability,A1 inhib
COC(=O)c1c(C)oc2ccc(OCc3ccccc3C)cc12,4.7,0.3
CCOc1ccc(C2C3=C(CCCC3=O)NC3=C2C(=O)CCC3)cc1,2.8,1.0
O=C(COc1ccccc1)NCc1nc2ccccc2n1Cc1ccc(Cl)cc1,1.4,1.1

# The results go on.
SMILES,BJeLR viability,A1 inhib
CSc1nc(-c2ccccc2)cn1-c1cccc(Cl)c1,-8.2,1.2
O=C(Nc1ccc(Cc2ccc(NC(=O)C3CC3)cc2)cc1)C1CC1,8.8,1.1
CCCC1C2C(=O)N(c3ccccc3)C(=O)C2ON1c1ccc(Cl)c(Cl)c1 (stereo not given),0.6,-0.5
Cc1ccc(OCC(O)CN2CCC(C)CC2)c(C)c1 (stereo not given),-3.1,/
C[C@H](CO)N1C[C@H](C)[C@H](CN(C)S(=O)(=O)c2cccs2)Oc2ccc(NC(=O)Nc3ccc(F)cc3)cc2C1=O,1.1,-1.1
Cc1noc(C)c1NC(=O)Nc1ccc2c(c1)C(=O)N([C@@H](C)CO)C[C@H](C)[C@@H](CN(C)Cc1ccc(Cl)c(Cl)c1)O2,-1.6,-0.2
COC(=O)C(Cc1ccc(O)cc1)NC(=O)c1ccccc1OC (stereo not given),4.1,/
COc1ccc(S(=O)(=O)Nc2ccc3c(c2)C(=O)N([C@@H](C)CO)C[C@H](C)[C@H](CN(C)S(=O)(=O)c2ccc(C)cc2)O3)cc1,-2.1,0.4
CC(O)(C#Cc1ccccc1)c1ccc(N2CCCCC2)c(F)c1 (stereo not given),-9.3,-0.8
CC1CCCCN1S(=O)(=O)Cc1ccccc1 (stereo not given),-3.6,-0.6
C[C@H]1CN([C@@H](C)CO)C(=O)c2cc(NS(=O)(=O)c3cccs3)ccc2O[C@@H]1CN(C)Cc1ccncc1,0.5,-0.6
O=c1oc2ccccc2cc1-c1cn2c(n1)sc1ccccc12,12,-5.7
COc1cccc(C(=O)Cn2c(=O)n(CCCS(=O)(=O)C3CCCCC3)c(=O)c3ccccc32)c1,-3.2,/
CCOC(=O)c1c(SC)nc2ccc(Cl)cc2c1N1CCOCC1,-1.8,0.5
CN(Cc1ccccc1)C(=O)CSc1c2c(nc3ccccc13)CCC2,-4.7,/
CCn1cc(C(=O)NCCC(C)C)c2cc(OC)c(OC)cc2c1=O,3.8,/
COc1ccc(-c2cc(=Nc3ccc(OC)c(OC)c3)c3ccccc3o2)cc1,26,/
O=C1/C(=C/c2ccccc2F)Cc2ccccc21,1.3,/
CC(C)NC(=O)Nc1ccc2c(c1)C(=O)N([C@@H](C)CO)C[C@H](C)[C@H](CN(C)C(=O)Nc1ccccc1)O2,0.2,-0.6
CC1=C(c2ccc(C)cc2)S(=O)(=O)NC1=NCc1ccccn1,-0.3,1.1
C[C@@H]1CN([C@H](C)CO)C(=O)c2cccc(NC(=O)Nc3cccc4ccccc34)c2O[C@H]1CN(C)S(=O)(=O)c1cn(C)cn1,1.5,/
CNC[C@@H]1Oc2c(NC(=O)NC3CCCCC3)cccc2C(=O)N([C@H](C)CO)C[C@@H]1C,2.9,/
C[C@@H]1CN([C@@H](C)CO)C(=O)c2cc(NS(=O)(=O)c3cn(C)cn3)ccc2O[C@@H]1CN(C)C(=O)Nc1ccc2c(c1)OCO2,0.6,0.3
C=CCN(C#N)c1nc(N(C)C)nc(N(C)C)n1,-2.1,0.4
Cc1noc(C)c1S(=O)(=O)N(C)C[C@@H]1Oc2c(NC(=O)C3CCOCC3)cccc2C(=O)N([C@@H](C)CO)C[C@@H]1C,-0.8,/
Cc1ccc(Nc2nc(Nc3ccc(C)cc3)nc(N3CCCCC3)n2)cc1,0.8,0.0
C[C@H](CO)N1C[C@H](C)[C@H](CN(C)S(=O)(=O)c2ccccc2)Oc2c(NC(=O)C3CC3)cccc2C1=O,3.8,/
CC(C)NC(=O)N(C)C[C@H]1Oc2c(NC(=O)C3CC3)cccc2C(=O)N([C@@H](C)CO)C[C@H]1C,-1.3,/
